LANA-H2B inh: blocks KSHV LANA binding to histone H2A/H2B. Q9QR71. cell-free LANA-H2A/H2B peptide, fluorescence polarization. inhibition, % (test concentration not listed). hit rate 0.6% among 320,000. AID 2629; in the data active means inhibition mostly above about 10%, no sharp cut-off; inactive means mostly below about 6.7%;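 further: stock transfer was 7.5 nL into about 10 µL; 0% = median of vehicle wells and 100% = median of positive control wells; one replicate is shown; the record names a cut of 25% in any replicate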
Vif TR-FRET: inhibitors of Vif binding to APOBEC3G peptide, primary screen, biochemical, TR-FRET, GST-Vif 1-94, biotin-A3G peptide, dose response retest (AID 1117319); TR-FRET GST-Vif / biotin-A3G peptide binding; higher % means a stronger effect; test concentration not given here; strong numbers were not always called active; inhibition, %, or IC50 in µM where a hit was titrated; hit rate 0.57% among 260,000;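 active means above the screen mean plus three standard deviations and confirmed in dose response; inconclusive means results disagree or hit not tested in dose response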;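 further: Vif residues 1-94 fused to GST binding biotinylated APOBEC3G peptide 110-148; 0% = full assay without inhibitor and 100% = GST in place of GST-Vif; retest series ran down from 100 µM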
RanGTP-Impb inh: disruptors of Ran-importin-beta complex formation – biochemical, FRET, CFP-Ran, YFP-importin-beta, homogeneous, primary screen; cell-free CFP-Ran/YFP-importin-beta FRET ratio; inhibition, % (test concentration not listed); AID 2216; hit rate 1.1% among 300,000;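 active means most replicates above 15%; inconclusive means exactly half above 15%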;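 further: 0% = DMSO wells and 100% = Ran loaded with GDP instead of GTP; wells of about 40 µL received 100 nL stock; the first replicate is given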
ALR H2O2 inh: inhibitors of human sulfhydryl oxidase ALR. inhibition, % (test concentration not listed). P55789. purified ALR, DTT oxidation, H2O2 HRP-luminol luminescence. AID 485317. hit rate 3.8% among 290,000;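 active means mean and each replicate at 75% or more; inconclusive means only one of the two met; inactive means neither met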;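 further: stock transfer was 7.5 nL into about 7.5 µL; 0% = neutral wells and 100% = wells with inactivated enzyme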
HNF4A DNA FP: change in binding of human HNF4 alpha to DNA; activity change, % at 10 µM; HNF4a-FITC DNA binding, fluorescence polarization, 1 h; hit rate 0.3% among 360,000; P41235; AID 1224865; in the data active means activity change above about 30%, passing the limit was not always enough;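 further: controls were the assay level and a saturating level of protein; the project sought stronger binding though the title names inhibitors; some compounds called inactive have numbers as strong as hits; positive values seem to mean higher polarization but the record does not say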
Target sequence (P41235 whole entry, looked up): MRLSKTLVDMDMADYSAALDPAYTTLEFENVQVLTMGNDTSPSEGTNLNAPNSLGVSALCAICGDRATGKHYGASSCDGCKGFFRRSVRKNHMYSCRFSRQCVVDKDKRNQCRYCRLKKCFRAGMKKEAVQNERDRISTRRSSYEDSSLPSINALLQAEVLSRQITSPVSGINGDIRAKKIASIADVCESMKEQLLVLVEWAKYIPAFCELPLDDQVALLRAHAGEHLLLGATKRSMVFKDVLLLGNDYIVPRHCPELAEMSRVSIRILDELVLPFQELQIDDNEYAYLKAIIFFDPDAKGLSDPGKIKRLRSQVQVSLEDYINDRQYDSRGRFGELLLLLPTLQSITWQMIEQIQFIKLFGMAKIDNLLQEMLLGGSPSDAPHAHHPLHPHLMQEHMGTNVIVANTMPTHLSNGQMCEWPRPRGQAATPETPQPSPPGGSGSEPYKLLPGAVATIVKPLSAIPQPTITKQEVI
Beta2AR agonist: activates human beta-2 adrenergic receptor causing internalization; AID 504454; P07550; hit rate 0.43% among 340,000; response, % (no concentration beside the values); Am2.2-beta2AR cells, FAP receptor internalization, flow cytometry; reference of the scale not given here;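 active means response above a set limit, near 3 SD of response in nonfluorescent compounds, cut at about 42% in these data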;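 further: stock transfer was 100 nL into about 11 µL; a reference agonist was the positive control; negative values mostly stem from fluorescent compounds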
Target sequence (P07550 whole entry, looked up): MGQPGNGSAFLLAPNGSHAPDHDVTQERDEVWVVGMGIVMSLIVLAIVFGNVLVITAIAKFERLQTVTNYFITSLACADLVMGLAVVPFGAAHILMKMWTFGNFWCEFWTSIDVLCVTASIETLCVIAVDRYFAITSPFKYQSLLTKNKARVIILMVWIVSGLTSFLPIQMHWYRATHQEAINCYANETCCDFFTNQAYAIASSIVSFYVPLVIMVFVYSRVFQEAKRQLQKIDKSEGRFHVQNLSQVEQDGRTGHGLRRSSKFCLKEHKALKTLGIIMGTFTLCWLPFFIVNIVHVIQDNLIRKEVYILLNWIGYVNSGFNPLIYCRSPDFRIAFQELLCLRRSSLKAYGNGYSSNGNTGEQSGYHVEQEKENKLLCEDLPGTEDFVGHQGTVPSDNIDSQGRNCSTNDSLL
Calb FLC: C. albicans growth modulation with fluconazole; C. albicans CaCi-2 (fluconazole-resistant clinical isolate) + fluconazole, Alamar Blue growth, 48 h; growth inhibition, % (concentration not given with the values); hit rate 0.57% among 300,000;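 active means most replicates above 75%; inconclusive means exactly half above 75%; inactive means most below 75%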;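 further: all wells also contain fluconazole at 8 µg/ml as a sub-toxic cotreatment; 0% = median of DMSO wells and 100% = median of geldanamycin control wells; wells of about 8 µL received 7.5 nL stock; the first replicate is given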
* = called active by the depositor; i = inactive; u = inconclusive; x = no result given. Outcome played no part in choosing rows; any-hit rate near 6.3%.

SMILES | LANA-H2B inh | Vif TR-FRET | RanGTP-Impb inh | ALR H2O2 inh | HNF4A DNA FP | Beta2AR agonist | Calb FLC
O=C(NC1CCCC1)c1cc(-c2cccs2)on1 | 0.2 | u | 1.1 | -8 | -2.4 | -8 | -20
O=C(Nc1ccc(Cl)cc1)C1CC=CCC1C(=O)OCC(F)(F)C(F)F (centres undefined) | -0.8 | -4% | 3.8 | -13 | 0.1 | -6 | 9
COc1cc(O)sc1C=Nc1ccc(Cl)cc1Cl | -1.7 | -1% | -1.6 | -10 | -0.7 | 7 | 13
OCCCNc1nc(-c2ccc(Cl)cc2)nnc1-c1ccccc1 | 1.6 | -39% | -3.4 | x | 2.5 | -5 | 1
COc1ccc(-c2noc(CCCOc3ccc(Cl)cc3Cl)n2)cc1 | -0.6 | 0% | 2.1 | -1 | 0.8 | 8 | 3
COc1ccc(N2C(=O)/C(=C3/C=CC=CN3C)SC2=S)cc1 | -6.7 | x | -2.3 | 60 | 0.5 | -31 | 0
COc1cc(OC)nc(S(C)(=O)=O)n1 | 5.1 | 24% | 2.2 | 5 | -1.7 | 5 | 3
Cc1ccc(S(=O)(=O)N2CCOCC2)cc1C(=O)Nc1nc2ccccc2[nH]1 | -1.6 | 71% | 3.3 | -17 | -2.2 | -7 | 10
O=C(Nc1ccccc1O)/C(=C\c1ccccc1)NC(=O)c1ccccc1 | -1.8 | 8% | x | 61 | -3.7 | 7 | 47
COC(=O)CC1=C(C(=O)OC)C(c2ccc3c(c2)OCO3)C(C#N)=C(N)O1 (centres undefined) | 5.3 | 9% | 7.4 | -10 | -7.4 | 0 | 7
Cc1cc2c(cc1C)NC(c1c(C)n(C)n(-c3ccccc3)c1=O)C1=C(CC(C)(C)CC1=O)N2 (centres undefined) | i | u | 8.1 | -28 | -29 | -10 | 6
CC(Nc1ncnc2nc[nH]c12)c1ccccc1 (centres undefined) | -3.1 | 1% | -0.2 | -5 | -3.4 | -1 | -4

Reprinted from the part before: 6 compounds, then new ones.
SMILES | LANA-H2B inh | Vif TR-FRET | RanGTP-Impb inh | ALR H2O2 inh | HNF4A DNA FP | Beta2AR agonist | Calb FLC
COc1cc(OC)nc(S(C)(=O)=O)n1 | 5.1 | 24% | 2.2 | 5 | -1.7 | 5 | 3
Cc1ccc(S(=O)(=O)N2CCOCC2)cc1C(=O)Nc1nc2ccccc2[nH]1 | -1.6 | 71% | 3.3 | -17 | -2.2 | -7 | 10
O=C(Nc1ccccc1O)/C(=C\c1ccccc1)NC(=O)c1ccccc1 | -1.8 | 8% | x | 61 | -3.7 | 7 | 47
COC(=O)CC1=C(C(=O)OC)C(c2ccc3c(c2)OCO3)C(C#N)=C(N)O1 (centres undefined) | 5.3 | 9% | 7.4 | -10 | -7.4 | 0 | 7
Cc1cc2c(cc1C)NC(c1c(C)n(C)n(-c3ccccc3)c1=O)C1=C(CC(C)(C)CC1=O)N2 (centres undefined) | i | u | 8.1 | -28 | -29 | -10 | 6
CC(Nc1ncnc2nc[nH]c12)c1ccccc1 (centres undefined) | -3.1 | 1% | -0.2 | -5 | -3.4 | -1 | -4
CCOC(=O)c1c(C)[nH]c(NC(=O)Nc2c(C)n(C)n(-c3ccccc3)c2=O)c1C | 3.3 | u | 1.9 | 36 | -0.6 | -3 | -1
Cc1ccc(S(=O)(=O)N(CC(=O)Nc2ccccc2C(=O)O)c2ccccc2C)cc1 | -12 | 6% | -1.5 | -2 | -2.4 | 14 | 1
CC(C)CCC1(CCNC(=O)c2cccs2)CCOC(C)(C)C1 (centres undefined) | -0.8 | -6% | 3.9 | -6 | 1.3 | -23 | 4
CCN=C1SC(C(=O)Nc2cccc(C)c2)CC(=O)N1CC (centres undefined) | -2.4 | -2% | 1.4 | -2 | -0.2 | -7 | -8
N#Cc1c(-c2ccccc2)[nH]c(=S)[nH]c1=O | -4.7 | 2% | 0.3 | 57 | -3.0 | -9 | -12
OC[C@H]1OC(O)[C@@H](O)[C@@H](O)[C@@H]1O (some centres undefined) | 2.5 | x | 0.6 | -25 | 0.6 | -6 | -8
CNC(=O)c1ccc(-n2nc(C)cc2-c2ccccc2)cc1 | -4.9 | -3% | u | 1 | -0.8 | -23 | 34
O=C(Nc1ccsc1C(=O)O)c1ccccc1 | 5.2 | 5% | -5.2 | 0 | 6.2 | 8 | 1
CCOC(=O)C1Oc2ccccc2C(c2ccoc2)=C1C(=O)OC (centres undefined) | x | 1% | x | x | -0.7 | 9 | x
CCOC(=O)Nc1ccc2c(c1)N(C(=O)CCN(CC)CC)c1ccccc1S2=O (centres undefined) | 3.3 | -13% | 1.1 | 13 | 0.4 | -1 | -2
OC(c1ccccc1)C(O)c1ccccc1 (centres undefined) | 5.5 | x | 1.8 | -3 | 4.4 | 0 | -24
Nc1ccc(OCCCc2c(N)nc(N)nc2N)cc1 | -0.3 | 12% | 0.9 | 99* | 5.2 | -7 | 10
Cc1ccc(OCc2csc(N)n2)cc1 | -3.1 | x | 2.3 | -4 | -0.8 | 2 | -62
Cc1sc2nc(SCC(=O)Nc3ccc(S(N)(=O)=O)cc3)[nH]c(=O)c2c1C | -0.3 | -2% | 0.2 | -12 | 0.6 | -7 | 9
COc1ccc(CNC(=O)CN(C)S(=O)(=O)c2ccc3c(c2)OCCO3)cc1OC | 4.5 | -9% | x | -1 | 1.7 | 1 | x
CCCn1c2c(c(O)c(C(=O)NCCCN(CC)CC)c1=O)CCCC2 | 5.8 | x | u | -2 | 5.2 | -12 | -14
COc1ccccc1/C=C1\SC(=S)N(NS(=O)(=O)c2ccccc2)C1=O | -4.4 | 8% | u | 0 | -1.0 | 4 | 91*
CCOC(=O)c1[nH]ncc1CN1CCC(Cc2cccc(OC)c2)(C(=O)OCC)CC1 | 0.9 | -1% | 5.0 | 0 | -1.2 | 2 | 0
COCCCNC(=O)CCCOc1ccccc1 | -2.4 | u | -1.1 | 10 | -2.6 | 2 | -2
CSc1ccc(S(=O)(=O)NCC(=O)OCC(=O)N(C)C2CCCCC2)cc1[N+](=O)[O-] | -5.2 | 2% | -0.3 | 0 | -5.4 | -7 | -1
COc1ccc(Cc2nnc(SC)[nH]c2=O)cc1 | -0.2 | 20% | 0.6 | 10 | -4.0 | 6 | -21
O=[N+]([O-])c1ccc(S(=O)(=O)N(CC(O)CN2CCCCC2)c2ccccc2)cc1 (centres undefined) | 7.1 | x | 1.1 | -29 | -1.1 | -8 | -12
S=C(NCCc1ccccc1)N1CCN(C(=S)NCCc2ccccc2)CC1 | x | 1% | x | x | -4.3 | 0 | x
CC(=O)OC[C@H]1O[C@@H](Sc2cccc3cccnc23)[C@H](OC(C)=O)[C@@H](OC(C)=O)[C@H]1OC(C)=O | -2.8 | x | 0.0 | 2 | 0.6 | 10 | -10
Cc1cccc(C(=O)OCC(=O)N2CCN(C(=O)c3ccco3)CC2)c1O | -0.9 | -9% | x | 8 | -3.1 | -1 | x
CCOCCn1c(SCCCc2ccccc2)nc2c1c(=O)[nH]c(=O)n2C | -2.5 | 18% | -1.0 | 2 | 0.4 | 4 | 9
COCCNc1nc(-c2ccc(OC)cc2)c(-c2ccc(OC)cc2)s1 | -6.0 | -1% | u | 94* | -4.4 | 4 | -9
C=CCc1ccc(OCCCCOc2ccc(C(=O)O)cc2)c(OC)c1 | -1.4 | 4% | -3.2 | -13 | -2.2 | 3 | -3
COc1ccc(CNC(=O)CN(C(=O)CCC(=O)Nc2nccs2)c2ccc(C)cc2)cc1 | -17 | -1% | 11 | x | -2.3 | 3 | 2
COc1cc2c(cc1OC)CN(S(=O)(=O)c1ccc(Cl)nc1)CC2 | x | 2% | x | x | 1.6 | -1 | x
CCOC(=O)c1cc2n(n1)C(C(F)(F)F)CC(C)N2 (centres undefined) | 10 | 1% | -2.1 | -6 | 4.6 | 25 | -2
Cc1ccc(S(=O)(=O)N2CC(O)C[C@H]2C(=O)OCC(=O)c2ccccc2)cc1 (some centres undefined) | -3.0 | x | 2.3 | 7 | -0.8 | 0 | -1
C=CCNC(=O)C1CC(=O)N(c2ccc(OCc3ccc(F)cc3)cc2)C1 (centres undefined) | -2.6 | x | -4.4 | -2 | -0.6 | 8 | -19
CCN1CCN(C(C(=O)NC2CCCC2)c2ccc(Cl)cc2)CC1 (centres undefined) | -4.0 | -3% | 0.3 | -18 | 1.4 | -8 | 1
CS(=O)(=O)c1ccc(-c2csc(-c3cccnc3)n2)cc1 | 0.7 | -21% | -1.3 | x | 0.4 | -2 | -2
CCC(CC)C(=O)c1c[nH]c(C(=O)NCc2ccncc2)c1 | 0.2 | -8% | 4.4 | -3 | -1.4 | 0 | -13
CCCCn1c(N)c(N(Cc2ccccc2OC)C(=O)COc2ccc(C)cc2)c(=O)[nH]c1=O | -0.8 | -1% | -1.1 | 3 | 4.5 | -5 | -10
CCc1cc(=O)oc2c(CN3CCN(C)CC3)c(O)c(Cl)cc12 | 1.8 | 8% | 32* | -11 | -5.9 | 5 | 2
CN1CCN(C(=S)Nc2ccc(Cl)cc2)CC1 | -4.2 | -7% | 0.9 | 2 | 0.6 | 1 | -35
CCOC(=O)N1CCC(Nc2c(Nc3cccc(CC)c3)c(=O)c2=O)CC1 | 0.5 | 23% | 7.6 | x | 1.1 | 7 | 9
c1ccc(CCN2CCN=C2Nc2ccccc2)cc1 | 2.9 | x | -2.2 | 4 | 1.2 | -4 | 2
CSC1=NC(C(Cl)(Cl)Cl)N=C(c2ccccc2)N1 (centres undefined) | -2.2 | 2% | u | x | 3.6 | -7 | -76
O=C(COC(=O)C1CCC(=O)N1)Nc1ccc(Br)cc1 (centres undefined) | -0.8 | 12% | 0.0 | -1 | -2.4 | -1 | -10
CCc1c(C)nc2cc(-c3cc(OC)cc(OC)c3)nn2c1N1CCN(CCN2CCOCC2)CC1 | 6.2 | -4% | -2.6 | x | 2.1 | 12 | 21
CC(=O)c1cccc(NC(=O)CCS(=O)(=O)c2cc3c(cc2C)NC(=O)CO3)c1 | -3.7 | x | 2.9 | -2 | -3.9 | 1 | 5
Cc1ccc(NCc2ccccc2OCc2ccccc2F)cc1 | -2.0 | -4% | -0.7 | 1 | 2.6 | 6 | -1
Cc1nc(NS(=O)(=O)c2ccccc2)sc1C(=O)NNS(=O)(=O)c1ccccc1 | 3.4 | x | 1.8 | x | 4.0 | 2 | 10
COc1ccc(NC(=O)COc2ccccc2)cc1Cl | -0.6 | -13% | -1.4 | x | -2.2 | -3 | 15
